Screening results: PubChem, PCMD
Calb biofilm kill: mixtures killing C. albicans biofilm; inhibition, % at 7.6 µM; AID 1242; 0.02% of 120,000 active; C. albicans biofilm persisters + clotrimazole, fluorescence viability; primary screen in compound mixtures of four per well;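 active means inhibition above 30.3% in the primary screen of four-compound pools, then above 30% when the compound was retested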;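 further: compounds exposed to preformed 24 h biofilms for 48 h; the number belongs to the whole pool; some results filed as inactive read as strong as hits; inactives centre near 12; 0% = biofilm with clotrimazole alone and 100% = kill control; retested singly at about 60 µM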
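Test system: C. albicans biofilms. Buffer or medium: RPMI/MOPS medium, pH 7.0. Timing: 48 h compound exposure at 37 °C. Technique: Alamar Blue fluorescence. Evaluation: percent inhibition of biofilm viability.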
* = called active by the depositor. The list is partial, so the mix of outcomes need not match the whole.

SMILES	Calb biofilm kill
COC(=O)CCC(=O)OC1(C)C(=O)C=C2C=C(C3CC3)N(CCCCO)C=C2C1=O (stereo not given)	19.1
Cc1ccc(N=N/C(=C\O)C(=O)c2ccc(Cl)cc2)cc1	5.0
CC(C)c1cc(C(=O)OCC(=O)NC(=O)NCc2ccco2)c(O)c(C(C)C)c1	-11.1
COc1cc(NC(=O)COC(=O)CSc2ccccc2F)c(C)cc1[N+](=O)[O-]	13.4
CC1CCc2cc(F)ccc2N1C(=O)c1ccncc1 (stereo not given)	9.1
C=C(C)C(=O)Nc1cccc(C2=NOC3(C2)C[C@@H](C(N)=O)N(C(=O)/C=C/CC)C3)c1 (stereo not given in full)	13.9
O=S(=O)(NCc1ccccc1)c1ccccc1Br	11.6
C/C=C/c1cc(CN2CCN(c3ccc(OC)cc3)CC2)c(O)c(OC)c1	6.0
CN(C)S(=O)(=O)c1ccc(C(=O)OCC(=O)NCc2ccco2)cc1	-3.7
CCOC(=O)c1cc2c(=O)n3ccccc3nc2n(Cc2ccco2)c1=NC(=O)c1ccc(OC)cc1	14.5
Cc1ccccc1NC(=O)C1CC(=O)N(Cc2ccccc2)C1 (stereo not given)	-2.9
Clc1ccc(-c2ccccc2)nn1	14.0
CCc1nnc(NC(=O)C2CCCCN2S(=O)(=O)c2ccccc2)s1 (stereo not given)	27.3
CCOC(=O)C1=C(N)N(c2cc(S(=O)(=O)N3CCOCC3)ccc2Cl)C(=O)C1	16.6
CN(C)C(=O)c1cccn(Cc2cccc(C(F)(F)F)c2)c1=O	6.3
CCOC(=O)c1ccccc1NC(=O)c1n[nH]c(=O)c2ccccc12	18.7
O=C(C[n+]1ccc(/C=N/O)cc1)NC1CCCCC1	22.5
CC12CCC(C(=O)Nc3ccc(Cl)cc3)([C@H](Br)C1=O)C2(C)C (stereo not given in full)	15.9
O=C(CC1S/C(=N/N=C/c2c[nH]c3ccc(OCc4ccccc4)cc23)NC1=O)Nc1ccccc1 (stereo not given)	17.5
CN(C)S(=O)(=O)c1cccc(NC(=S)NCCCn2ccnc2)c1	13.8
COc1ccc(/C=C2\CCCC3C2=NN(C(=O)CSc2n[nH]c(N)n2)C3c2ccc(OC)cc2)cc1 (stereo not given)	15.9
O=c1c(Cl)c(Cl)cnn1Cc1nnc(-c2ccc(Cl)cc2)o1	11.9
CCOC(=O)C1=C(C)NC(=O)NC1c1ccc(-c2ccccc2F)o1 (stereo not given)	15.0
O=C(CCl)Nc1ccc(-c2ccccc2)cc1	5.7
Cc1ccc(NC(=O)COC(=O)Cn2cnc3ccccc32)c([N+](=O)[O-])c1	9.3
O=C(COc1cccc(NC(=O)c2cccs2)c1)c1ccc(F)cc1	11.2
O=C(c1nc2ccccc2[nH]1)c1ccccc1[N+](=O)[O-]	18.6
Cc1ccc(S(=O)(=O)NC2(C(F)(F)F)C(=O)Nc3c2c(=O)[nH]c(=O)n3-c2ccccc2)cc1 (stereo not given)	17.1
CN(C)c1nc(Nn2cnnc2)nc(N(C)C)n1	17.1
COC(=O)c1[nH]c2cc(OC)ccc2c1N=CN(C)C	12.6
COc1ccc(C2CC(c3ccc4ccccc4c3OC(C)=O)=NN2C(=O)/C=C/c2ccccc2)cc1 (stereo not given)	7.6
CCOC(=O)NC(=O)CSc1nc2ccc(C)cc2[nH]1	12.1
CN1CCN(CC(=O)NN2CC(=O)N(c3ccc(F)cc3)CC2=O)CC1	12.7
O=C(CSC1CC(=O)N(CCc2ccccc2)C1=O)Nc1cccc(Cl)c1 (stereo not given)	20.4
COc1ccccc1-n1c(=O)[nH]c2c(C(N)=O)nc(-c3cccnc3)nc21	9.0
CCOC(=O)c1ccccc1NC(=O)CSc1nncn1C	13.9
O=C1N=C(N2CCN(c3ccccc3)CC2)SC1Cc1ccccc1 (stereo not given)	5.6
O=C(COC(=O)c1ccc(NS(=O)(=O)c2cccs2)cc1)Nc1nc2c(F)c(F)c(F)cc2s1	7.2
Cc1ccc2nsnc2c1S(=O)(=O)NC1CC1	3.8
CCOc1ccc(C(C)C)cc1S(=O)(=O)n1ccnc1C	13.3
COc1cccc(NC(=O)/C=C/c2ccccc2[N+](=O)[O-])c1	15.1
O=C(/C=C/Nc1ccc([N+](=O)[O-])cc1Br)c1cccc2ccccc12	15.6
COC(=O)CC1C(=O)NCCN1C(=O)CSc1nc2ccc([N+](=O)[O-])cc2s1 (stereo not given)	16.0
Cc1c(Oc2ccc(C(F)(F)F)cc2[N+](=O)[O-])ccc2c3c(c(=O)oc12)CCC3	22.2
O=C(NCc1ccc(Cl)s1)c1cc(COc2c(F)cccc2F)on1	-2.9
FC(F)(F)c1nnc(N2CCN(c3ccc(Cl)cc3)CC2)s1	5.2
O=C(NNC(=S)NC1CC2C=CC1C2)c1ccncc1 (stereo not given)	7.2
CCN(c1ccc(NC(=O)COC(=O)CCc2nc3ccccc3n2-c2ccccc2)cc1)C(C)C	11.4
CN(CC(=O)Nc1ccccc1Br)c1ncnc2sccc12	-6.1
CCOc1ccc(OCCOCCNCCOC)cc1	8.0

Following part.
SMILES	Calb biofilm kill
COc1ccc(C(=O)c2c(C)c3ccccc3n2CC(O)CNC(C)C)cc1 (stereo not given)	7.3
Nc1ccc2nc(NC(=O)C3CCCCC3)sc2c1	12.9
NNC(=O)c1cc2c(s1)-c1cc(Cl)ccc1SC2	3.0
COc1ccc(NC(=O)C(c2ccccc2)c2ccccc2)cn1	19.4
COc1ccc(/C=C/C(=O)OCC(=O)Nc2ccc(N3CCOCC3)cc2)cc1	7.5
COc1ccccc1C(CNC(=O)c1ccc(S(=O)(=O)NCc2ccco2)cc1)N(C)C (stereo not given)	16.9
CCCn1c(SCC(=O)Nc2ccc(OCC)cc2)nnc1C(C)C	16.8
CC(/C=N/NC(=O)c1cc(-c2ccc(C)s2)[nH]n1)=C\c1ccccc1	13.3
CC(C)C(=O)c1cn(CC(=O)NCc2ccco2)c2ccccc12	9.7
O=C(CNC(=S)N(Cc1ccccc1)Cc1cccnc1)NCCc1ccccc1	-7.1
Cc1cc(C)c2c(c1)[C@@H]1C=CC[C@@H]1[C@H](c1ccc(S(=O)(=O)N3CCOCC3)cc1)N2	26.0
Cc1ccccc1CN1CCN(S(C)(=O)=O)CC1	3.9
CCN1C(=O)/C(=C/c2ccc(C)o2)N(C)C1=S	19.1
CS(=O)(=O)N(CC(=O)NN=C1CCCCCC1)c1ccc(Oc2ccccc2)cc1	6.5
COc1ccc2nc3ccccc3nc2c1NC(=O)c1ccc(Cl)cc1Cl	7.6
COc1cc(NC(=O)c2csc(-c3ccncc3)n2)cc(C(=O)Nc2cccc(C(F)(F)F)c2)c1	14.8
O=c1c2cc(Cl)ccc2[nH]c(=S)n1Cc1cccs1	20.4
CCCCNc1c(N)n(CC(C)C)c(=O)[nH]c1=O	9.5
COC(=O)c1cccc(-n2cnnn2)c1	16.0
COc1ccc2c(c1)CCc1cc(C(=O)O)sc1-2	18.7
O=C(Nc1ccccc1N1CCOCC1)c1ccc2c(c1)OCO2	8.7
Cc1noc(C)c1C(=O)NNc1cc(Cl)ccc1Cl	19.4
Cc1cc(=O)[nH]c(N/N=C/c2ccccn2)n1	7.8
CCOc1ccc(S(=O)(=O)NC(Cc2cnc[nH]2)C(=O)O)cc1 (stereo not given)	14.9
CCCCNC(=O)c1[nH]c(C)c(C(C)=O)c1C	4.7
CCOC(=O)c1c(NC(=O)CC2SC(N)=NC2=O)sc2c1CCC(C)C2 (stereo not given)	6.0
CN1C(=O)/C(=C/c2ccccc2Cl)Sc2ccc(C(=O)NCc3cccnc3)cc21	6.3
O=C(c1cc(C(=O)c2ccco2)cc(C(=O)c2ccco2)c1)c1ccco1	13.0
O=C(NC(=S)Nc1ncccn1)c1ccc(Cl)cc1Cl	20.8
NC1=NC2CS(=O)(=O)CC2S1 (stereo not given)	12.2
COCCNC(=O)C1CC2Cn3c(nc4cc5ccccc5cc43)C2N1C (stereo not given)	9.4
COc1ccc(Br)c2oc(SC)cc(=O)c12	12.1
COc1ccccc1NS(=O)(=O)c1ccc(Cl)c(NC(=O)C(C)N2C(=O)c3ccccc3C2=O)c1 (stereo not given)	16.2
CCN(CC)c1ccc(NC(=O)c2ccc3c(c2)c(C)c(C)n3C)cc1	19.9
COC(=O)CCCC(=O)N1CCCC(CCC(=O)NCc2ccc(F)c(F)c2)C1 (stereo not given)	13.8
Cc1cc2c(ncn2C(C)C)c(NS(=O)(=O)c2ccc(F)cc2)c1C	12.0
CC(C)(C)C(=O)NC(n1cnc2c(N3CCOCC3)ncnc21)C(Cl)(Cl)Cl (stereo not given)	10.4
COc1cc(C(C)=O)ccc1Oc1ncnc2c1cnn2-c1ccc(C)c(C)c1	11.6
CN(C)CCC(c1ccc(Cl)cc1)c1ccccn1 (stereo not given)	12.0
CCOc1ncccc1C(=O)OCc1c(F)cccc1Cl	-11.9

Another view of some results above.
Cc1ccccc1CN1CCN(S(C)(=O)=O)CC1
  Calb biofilm kill = 3.9

COc1ccccc1NS(=O)(=O)c1ccc(Cl)c(NC(=O)C(C)N2C(=O)c3ccccc3C2=O)c1 (stereo not given)
  Calb biofilm kill = 16.2

Next results follow.
SMILES	Calb biofilm kill
O=C(CSc1ccc(-c2ccccn2)nn1)N1CCCCC1	14.9
CCOC(=O)C1CCN(C(=O)CN(c2ccc(Oc3ccccc3)cc2)S(C)(=O)=O)CC1	6.8
Nc1cccnc1-n1nc(C(F)(F)F)cc1C(F)(F)F	10.4
CCOC(=O)N1CCN(C(=O)COc2cccc3c2CCN(Cc2ccccc2C)C3=O)CC1	8.7
Cc1ccc2nc3c(cc(C#N)c(=N)n3Cc3cccnc3)c(=O)n2c1	7.1
C/C(Cc1ccccc1)=N\NC(=O)c1cccnc1	-1.3
COC(=O)CCC(=O)Nc1sc(Cc2ccccc2)c(C)c1C(N)=O	9.9
Cc1ccc(NC(=O)c2oc3ccccc3c2C)c([N+](=O)[O-])c1	5.8
NCC(c1ccccc1)c1c[nH]c2ccccc12 (stereo not given)	8.3
Cc1ccc([N+](=O)[O-])c(OCCCN2CCCCCC2)c1	13.9
Cc1ccccc1-n1ncc(C(C)NC(=O)c2ccco2)c1C (stereo not given)	9.0
COc1ccccc1N1CCN(/N=C/c2cccc(OC)c2OC)CC1	21.1
CCc1nnc(NC(=O)c2ccc(-c3ccccc3F)o2)s1	10.6
COc1ccc(C(=O)COC(=O)C2CCCN2C(=O)C23CC4CC(CC(C4)C2)C3)cc1 (stereo not given)	-0.7
N/C(=N\OC(=O)c1ccc2ccccc2c1)c1ccncc1	10.4
COc1ccccc1OCCCOc1c(C)cc(C)cc1Br	20.5
CN(C)/C(=N\O)c1c(Cl)cccc1Cl	7.0
CNC(=O)c1ccc(NC(=O)/C=C/c2cccc(F)c2)cc1	11.1
C[N+]1(CC(=O)NNc2c3ccccc3nc3ccccc23)CCOCC1	9.9
CC1(C)CC(C(CCN(Cc2ccccc2)C(=O)c2ccco2)c2ccc(F)cc2)CCO1 (stereo not given)	16.6
Clc1ccccc1Nc1nc(-c2cccnc2)cs1	8.4
COc1ccc(-c2oc3ccccc3c(=O)c2OC(C)=O)cc1	9.2
Cc1ccc(N(CC(=O)NC2CCCCC2)C(=O)Cn2nnc(-c3ccc(C)o3)n2)cc1	10.2
N#CCSc1nc2ccccc2c(=O)n1CC1CCCC1	-0.7
O=C(CCNC(=O)c1ccco1)Nc1ccc(Cl)cc1	9.9
O=c1c2ccccc2nc2n1C(CSc1ccc(F)cc1)CS2 (stereo not given)	-4.8
CC(C)NC(=O)c1ccccc1NC(=O)Cc1ccc(Br)cc1	21.2
Cc1ccc[n+](CC(=O)Nc2c(Cl)cc(Cl)cc2Cl)c1	-0.6
COc1ccc(OCC(=O)Nc2nccs2)cc1	24.0
COc1cc(/C=N/N(C)C)ccc1OC(=O)c1ccco1	16.4
CCNC(=S)N(Cc1cc2cc(C)c(C)cc2[nH]c1=O)C1CCCC1	-2.0
CN(C)S(=O)(=O)c1ccc(Cl)c(NC(=O)CN2CCC(Cc3ccccc3)CC2)c1	13.3
CCc1ccc(NC(=O)C(=O)c2cn(CC(=O)N3CCCCC3)c3ccccc23)cc1	14.2
CC(=O)c1cnc2n(c1=O)CCS2	16.8
O=C(COc1ccccc1[N+](=O)[O-])c1ccccc1	10.4
CN(C)S(=O)(=O)c1ccc(Cl)c(NC(=O)COC(=O)[C@@H]2CCCN2C(=O)c2cccs2)c1	17.3
Cc1ccc2nc(SCC(=O)NCc3cccs3)[nH]c2c1	19.3
O=C(CCl)N1N=C(c2ccco2)CC1c1cccs1 (stereo not given)	22.2
Cc1ccc(NC(=O)c2sc(Cl)nc2C)c(C)c1	7.9

Gathered by group, the entries above containing a furan ring, fused or not
SMILES	Calb biofilm kill
CC(C)c1cc(C(=O)OCC(=O)NC(=O)NCc2ccco2)c(O)c(C(C)C)c1	-11.1
CN(C)S(=O)(=O)c1ccc(C(=O)OCC(=O)NCc2ccco2)cc1	-3.7
CCOC(=O)c1cc2c(=O)n3ccccc3nc2n(Cc2ccco2)c1=NC(=O)c1ccc(OC)cc1	14.5
CCOC(=O)C1=C(C)NC(=O)NC1c1ccc(-c2ccccc2F)o1 (stereo not given)	15.0
COc1ccccc1C(CNC(=O)c1ccc(S(=O)(=O)NCc2ccco2)cc1)N(C)C (stereo not given)	16.9
CC(C)C(=O)c1cn(CC(=O)NCc2ccco2)c2ccccc12	9.7
CCN1C(=O)/C(=C/c2ccc(C)o2)N(C)C1=S	19.1
O=C(c1cc(C(=O)c2ccco2)cc(C(=O)c2ccco2)c1)c1ccco1	13.0
Cc1ccc(NC(=O)c2oc3ccccc3c2C)c([N+](=O)[O-])c1	5.8
Cc1ccccc1-n1ncc(C(C)NC(=O)c2ccco2)c1C (stereo not given)	9.0
CCc1nnc(NC(=O)c2ccc(-c3ccccc3F)o2)s1	10.6
CC1(C)CC(C(CCN(Cc2ccccc2)C(=O)c2ccco2)c2ccc(F)cc2)CCO1 (stereo not given)	16.6
Cc1ccc(N(CC(=O)NC2CCCCC2)C(=O)Cn2nnc(-c3ccc(C)o3)n2)cc1	10.2
O=C(CCNC(=O)c1ccco1)Nc1ccc(Cl)cc1	9.9
COc1cc(/C=N/N(C)C)ccc1OC(=O)c1ccco1	16.4
O=C(CCl)N1N=C(c2ccco2)CC1c1cccs1 (stereo not given)	22.2
